KCNQ2 block – KCNQ2 potassium channel inhibitors, primary screen, cell-based, CHO-K1, FluxOR thallium flux, B-score (AID 2156). Potassium voltage-gated channel subfamily KQT member 2 (Rattus norvegicus), O88943. 20 min; stronger effect = lower value; only compounds with negative scores are shown here; some inactives read as strong as hits. B-score at 10 µM. 1.1% of 310,000 active;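 active = fluorescence ratio B-score at most minus 3 library SDs, with starting brightness B-score within 2 library SDs, cut at about -5.5 in these data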
Target sequence (O88943 whole entry, looked up): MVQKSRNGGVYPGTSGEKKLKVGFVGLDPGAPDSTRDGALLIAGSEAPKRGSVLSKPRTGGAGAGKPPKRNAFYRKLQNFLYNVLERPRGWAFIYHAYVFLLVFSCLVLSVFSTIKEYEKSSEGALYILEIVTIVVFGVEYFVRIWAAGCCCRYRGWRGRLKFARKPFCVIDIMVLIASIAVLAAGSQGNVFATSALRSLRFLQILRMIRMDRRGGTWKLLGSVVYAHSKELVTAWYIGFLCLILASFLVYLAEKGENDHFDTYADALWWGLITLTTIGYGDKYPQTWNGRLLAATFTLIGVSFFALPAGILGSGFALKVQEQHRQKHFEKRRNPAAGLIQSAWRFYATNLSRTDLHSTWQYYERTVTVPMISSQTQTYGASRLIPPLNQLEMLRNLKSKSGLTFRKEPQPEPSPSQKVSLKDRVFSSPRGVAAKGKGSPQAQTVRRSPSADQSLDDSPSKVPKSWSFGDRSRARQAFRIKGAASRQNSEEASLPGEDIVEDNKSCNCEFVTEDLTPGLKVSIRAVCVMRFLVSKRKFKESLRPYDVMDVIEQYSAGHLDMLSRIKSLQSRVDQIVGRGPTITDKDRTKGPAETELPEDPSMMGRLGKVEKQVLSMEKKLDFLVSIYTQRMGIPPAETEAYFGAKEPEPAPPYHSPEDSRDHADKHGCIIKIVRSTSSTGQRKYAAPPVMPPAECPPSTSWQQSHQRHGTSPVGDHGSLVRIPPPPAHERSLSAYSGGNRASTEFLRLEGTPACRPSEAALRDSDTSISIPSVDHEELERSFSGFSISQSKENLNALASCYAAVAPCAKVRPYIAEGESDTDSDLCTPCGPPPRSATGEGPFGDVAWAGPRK
KCNQ2 block baseline – recorded beside KCNQ2 block, whose call it bears; B-score; measured here: initial fluorescence intensity artifact check;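 brightness before thallium and not channel activity; 0 = typical well and far values either way flag optical interference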
* hit, by the source's call; i = inactive. Some of the compounds tested. The share of hits here may be higher or lower than overall.

SMILES	KCNQ2 block	KCNQ2 block baseline
O=C(Nc1nnc(SCc2cccc3ccccc23)s1)C1COc2ccccc2O1 (stereo unspecified)	i	-0.21
CCCCn1c(N)c(N(CCC(C)C)C(=O)CCN2C(=O)C3CC=CCC3C2=O)c(=O)[nH]c1=O (stereo unspecified)	i	0.48
CCOC(=O)C1CCN(c2c(NCCCN(C)C3CCCCC3)c(=O)c2=O)CC1	i	-0.13
CN(C)c1cccc(NC(=O)c2ccco2)c1	i	2.27
Cc1nnc(NC(=O)c2cccc(NC(=O)C(C)C)c2)s1	i	-0.04
COc1ccc(C(=O)N/C(=C/c2cccs2)C(=O)NC(C)(C)C)cc1OC	i	-0.02
CCCCCC1(C(=O)OCC)CC(CSC(=N)N)OC1=O (stereo unspecified)	i	-0.56
O=C(NCc1ccc(F)cc1)C(=O)NCC1OCCN1C(=O)c1ccc(Cl)cc1 (stereo unspecified)	i	-0.69
Cc1ccc(NC(=S)N2CCN(C3CCCCC3)CC2)cc1	i	0.74
CCCn1c(=O)c2sccc2n2c(CCCC(=O)NCc3cccnc3)nnc12	i	-1.55
O=C(OCc1ccc([N+](=O)[O-])cc1)C1CC(=O)N(CCc2ccccc2)C1 (stereo unspecified)	i	-0.68
CSc1ccccc1C(=O)NCCOc1ccccc1C	i	0.58
CCCC(=O)NC(c1ccccc1Cl)c1c(O)ccc2ccccc12 (stereo unspecified)	i	0.11
CCN(CC)CCOC(=O)c1ccc(NC(=O)CNC(=O)C2CCCCC2)cc1	i	1.97
CN(C)C(=O)c1ccc(Nc2nc(-c3cccs3)nc3ccccc23)cc1	i	0.02
Cc1ccccc1CN(CC(=O)Nc1cccc([N+](=O)[O-])c1)S(=O)(=O)c1ccc(Cl)cc1	-6.64*	0.54*
CNC(=O)CSc1nc2sccc2c(=O)n1-c1ccccc1	i	-1.09
COc1cccc(-c2cccc(NC(=O)C3CCN(C4CCOCC4)CC3)c2)c1	i	-0.13
CCOC(=O)CC(NC(=O)c1ccccc1F)c1ccc(C)cc1 (stereo unspecified)	i	-0.7
O=C(OCc1ccc([N+](=O)[O-])cc1)C1CC(=O)N(c2ccccc2)C1 (stereo unspecified)	i	0.14
O=C(Nc1ccccc1[N+](=O)[O-])C1COc2ccccc2O1 (stereo unspecified)	i	-1.84
N#CCSc1nc2ccccc2c(=O)n1-c1ccccc1	i	-0.04
Cc1ccc(-n2cc(-c3ccccc3)c3c(N4CCN(C)CC4)ncnc32)cc1	i	-0.05
CC(=O)Nc1c(-c2ccc(Cl)cc2)c(=O)c2ccccc2n1C	i	0.73
O=C(NCc1ccco1)c1cc(S(=O)(=O)N2CCOCC2)ccc1Cl	i	0.58
CCSc1nnc(NC(=O)c2nc3nc(C)cc(C)n3n2)s1	i	1.89
Cc1cc(C)c(S(=O)(=O)ON2C(=O)c3ccccc3C2=O)cc1C	i	2.51
Nc1ccc2nc(SCc3ccc([N+](=O)[O-])cc3)sc2c1	i	-1.08
CC(C)(C)[C@@H]1C=C(C(=O)N2CCN(Cc3ccc4c(c3)OCO4)CC2)O[C@H](OCc2ccc(CO)cc2)C1	i	0.34
Cc1ccc(S(=O)(=O)n2ccc(OC(=O)c3cccs3)n2)cc1	i	0.64
COc1c(F)c(F)c(C(=O)Nc2cccc(Cl)c2N2CCOCC2)c(F)c1F	i	-0.63
Cc1nc(CC(=O)Nc2nc(-c3ccccc3)cs2)cs1	i	1.6
Cc1cc(C)n2nc(SCC(=O)NC3CCCCC3)nc2n1	i	-0.89
Fc1ccc(Cn2cnc3ccccc32)cc1	i	1.11
O=C(CCSCCc1ccccn1)Nc1nccs1	i	0.17
Cc1ccc(C)c(OCCn2ccnc2)c1	i	3.39
O=C(Cc1cccs1)N1CCN=C1SCc1ccccc1Cl	i	-0.82
CS(=O)(=O)Nc1ccc(C(=O)NCc2ccco2)cc1	i	-0.55
CC(C)CC1(C(=O)NCCN2CCOCC2)C=CCN1C(=O)c1ccccc1 (stereo unspecified)	i	1.06
CCOC(=O)c1ccc(N=c2sc(C(=O)OC)cc(=O)n2-c2ccc(C(=O)OCC)cc2)cc1	i	-0.39
Oc1[nH]c2ccccc2c1N=Nc1nc(Nc2ccccc2)nc(N2CCOCC2)n1	i	0.43
COc1ccc(OC)c2c1sc(=NC(=O)C1COc3ccccc3O1)n2C (stereo unspecified)	i	1.8
CCCCCn1c(=O)[nH]c2cc(C(=O)NCCN3CCC(C)CC3)ccc2c1=O	i	0.33
CC/C(=N\NC(=O)c1ccc(N2CCCC2=O)cc1)c1ccccc1	i	-1.48
COc1ccc(CCNc2oc(Cc3ccccc3)nc2C#N)cc1OC	i	-0.86
Cc1[nH]nc2c1[C@@H](c1ccccc1[N+](=O)[O-])C(C#N)=C(N)O2	i	1.35
Fc1cccc(Cl)c1CSc1nnc(-c2ccncc2)o1	i	1.27
CS(=O)(=O)N(CC(=O)Nc1c(F)cccc1F)c1cccc([N+](=O)[O-])c1	i	-0.49
Cc1ccc(N/C=C/C(=O)c2ccc(C)cc2)cc1	i	0.9
Cc1ccc(C(=O)N/C(=C/c2ccco2)C(=O)NCCCn2ccnc2)cc1	i	-1.1
c1cn2cc(CN3CCOCC3)nc2s1	i	-1.35
O=C(COC(=O)CCc1ccccc1)NC(c1ccccc1)c1ccccc1	i	0.32
C=CCN1C(=O)CSc2ccc(C(=O)NCCC3=CCCCC3)cc21	i	0.98
CC(=O)c1nn(-c2cccc(Br)c2)cc1C(=O)c1ccc(Br)cc1	i	1.07
CCOC(=O)/C(=C\c1ccc([N+](=O)[O-])cc1)C(=O)c1cc(C(C)=O)c(Nc2ccccc2)s1	i	-0.01
O=c1c2cn[nH]c2nc(SCc2ccccc2F)n1-c1ccc(Br)cc1	i	0.06
O=C(CC1S/C(=N/N=C2CCCCCC2)NC1=O)Nc1ccc(Br)cc1F (stereo unspecified)	i	-0.7
CCC(Oc1cccc(Cl)c1)C(=O)N1CCCN(C)CC1 (stereo unspecified)	i	-0.14
O=C(CSc1nnc(-c2ccccn2)n1Cc1ccco1)c1ccc(-c2ccccc2)cc1	i	1.46
O=C(COc1nsnc1N1CCOCC1)Nc1ccc([N+](=O)[O-])cc1	i	0.13

Sorted by molar mass (lowest first): part of the list above.
SMILES	KCNQ2 block	KCNQ2 block baseline
Cc1ccc(N/C=C/C(=O)c2ccc(C)cc2)cc1	i	0.9
Cc1[nH]nc2c1[C@@H](c1ccccc1[N+](=O)[O-])C(C#N)=C(N)O2	i	1.35
CCC(Oc1cccc(Cl)c1)C(=O)N1CCCN(C)CC1 (stereo unspecified)	i	-0.14
Fc1cccc(Cl)c1CSc1nnc(-c2ccncc2)o1	i	1.27
CC/C(=N\NC(=O)c1ccc(N2CCCC2=O)cc1)c1ccccc1	i	-1.48
C=CCN1C(=O)CSc2ccc(C(=O)NCCC3=CCCCC3)cc21	i	0.98
COc1ccc(CCNc2oc(Cc3ccccc3)nc2C#N)cc1OC	i	-0.86
O=C(COc1nsnc1N1CCOCC1)Nc1ccc([N+](=O)[O-])cc1	i	0.13
Cc1ccc(C(=O)N/C(=C/c2ccco2)C(=O)NCCCn2ccnc2)cc1	i	-1.1
CS(=O)(=O)N(CC(=O)Nc1c(F)cccc1F)c1cccc([N+](=O)[O-])c1	i	-0.49
CCCCCn1c(=O)[nH]c2cc(C(=O)NCCN3CCC(C)CC3)ccc2c1=O	i	0.33
Oc1[nH]c2ccccc2c1N=Nc1nc(Nc2ccccc2)nc(N2CCOCC2)n1	i	0.43
O=c1c2cn[nH]c2nc(SCc2ccccc2F)n1-c1ccc(Br)cc1	i	0.06
CC(=O)c1nn(-c2cccc(Br)c2)cc1C(=O)c1ccc(Br)cc1	i	1.07
O=C(CC1S/C(=N/N=C2CCCCCC2)NC1=O)Nc1ccc(Br)cc1F (stereo unspecified)	i	-0.7

(cont.)
SMILES	KCNQ2 block	KCNQ2 block baseline
CCOc1ccc(/C=C(\C#N)C(=O)Nc2ccccn2)cc1	i	2.37
CCOc1ccc(N2C(=O)c3cccnc3C2Nc2ccc(OC)cc2)cc1 (stereo unspecified)	i	0.47
Nc1nc(NCC(=O)O)nc(NC2CCCCC2)c1[N+](=O)[O-]	i	0.4
COc1ccc(C(=O)CSc2nnc(-c3ccccn3)n2Cc2ccco2)cc1	i	-0.32
Cc1ccc(-c2cc(-c3ccc(F)cc3)nc(N)c2C#N)o1	i	-1.11
CCCCOC(=O)NC1(C)CCS(=O)(=O)C1 (stereo unspecified)	i	0.36
COc1ccc(Oc2ccccc2/C=N/O)cc1	i	0.44
Cc1ccccc1Cc1c(C)nc2nc(SCC(=O)NCc3ccco3)nn2c1C	i	-1.01
CCCn1c(CNC(=O)Cc2ccccc2)nc2ccccc21	-6.74*	1.82*
NNc1nc(-c2ccccc2Cl)nc2ccccc12	i	0.03
O=C(CSc1ncnc2nc[nH]c12)N1CCN(c2ccc(Cl)cc2)CC1	i	-1.31
CC1=C(C(=O)OC(C)C)C(c2ccc(F)cc2)NC(=O)N1 (stereo unspecified)	i	4.09
CCOC(=O)/C(C#N)=C\c1c(OCC)n(CC)c2ccccc12	i	-1.9
O=C(COc1ccc(Cl)cc1)N1CCN(c2cccc(C(F)(F)F)c2)CC1	i	0.58
O=C(N/N=C/c1ccco1)c1cc(-c2ccc(Cl)cc2)n[nH]1	i	0.65
CC1C(=O)N2CCCc3cc(NC(=O)C(=O)NCCc4ccccc4)cc1c32 (stereo unspecified)	i	-0.68
C=CCOC(=O)C1=C(C)OC(N)=C(C#N)C1c1ccoc1 (stereo unspecified)	i	0.76
CC(C)C[C@H](NC(=O)c1[nH]cnc1C(=O)N[C@@H](C)c1ccccc1)C(=O)OCc1ccccc1	i	-1.19
C/C(Cn1nnc2ccccc21)=N\NC(=O)c1ccc(Br)cc1	i	-0.83
CN(CC(=O)Nc1ccccc1Br)C(=O)c1cccc(S(=O)(=O)NCc2ccccc2)c1	i	-0.24
Cc1ccc(N(C(=O)c2ccco2)C(C(=O)NC2CCCC2)c2ccco2)c(C)c1 (stereo unspecified)	i	-0.32
COc1ccc(S(=O)(=O)Nc2cccc(F)c2C)cc1C(=O)N1CCOCC1	i	2.29
COc1ccc(-c2c3c(=O)n(C)c(=O)n(C)c3cn2-c2cccc(OC)c2)cc1	i	-0.86
O=C(CN(CCO)c1ccccc1)Nc1ccc(Cl)c(S(=O)(=O)N2CCOCC2)c1	i	0.19
Cc1ccc(-c2cc(C(F)(F)F)n3nc(C(=O)Nc4c(C)n(C)n(-c5ccccc5)c4=O)cc3n2)cc1	i	-0.21
N#CC1=C(N)OC2=C(CCc3ccccc32)C1c1ccccc1Cl (stereo unspecified)	i	0.01
CN1c2ccccc2C(C)(C)C12CC(c1ccc(S(=O)(=O)N3CCCCC3)cc1)=NO2 (stereo unspecified)	i	-0.05
Cc1ccc(OCC(=O)N2CCC3(CC2)CC(=O)c2ccccc2O3)cc1	i	-0.21
COc1ccc(CCNC(=O)/C=C/c2ccco2)cc1OC	i	-1.55
Cc1nnc(SCC(=O)N2c3ccccc3C(C)(c3ccccc3)CC2(C)C)s1 (stereo unspecified)	i	0.46
c1ccc(OCCCc2nc(-c3ccccn3)no2)cc1	i	-1.58
Cc1ccccc1CC1(CO)CCCN(C(=O)c2cccc(Cl)c2)C1 (stereo unspecified)	-6.84*	1.22*
CCOc1ccc(OCC)c(-c2c(=O)n(OCc3ccc(C(C)(C)C)cc3)c3ccccc3[n+]2[O-])c1	i	-0.41
CC1=C(C(=O)Nc2ccccc2)C(c2ccco2)NC(=O)N1 (stereo unspecified)	i	-1.03
CCOC(=O)c1ccc(NC(=O)c2ccc(OC(C)C)c(OC)c2)cc1	i	1.29
CC(Nc1cccnc1)=C(C#N)C#N	i	1.22
O=C(Nc1ccc2oc(-c3ccc4ccccc4c3)nc2c1)c1ccc2c(c1)OCCO2	i	0.75
CCCCCC(=O)N1CCN(S(=O)(=O)c2ccc3c(c2)OCCO3)CC1	i	0.88
COc1ccc(CCNC(=O)C(=O)NCC2OCCN2S(=O)(=O)c2ccc(C)cc2)cc1OC (stereo unspecified)	i	-0.77
Cc1ccc(NN2C(=O)C=CC2=O)cc1	i	-1.15
O=C(Nc1ccccc1F)c1cc2c(s1)-c1ccccc1S(=O)(=O)C2	i	-0.76
COC(=O)c1cccc(Nc2cc(C)nc(-c3ccccc3O)n2)c1	i	1.37
Cc1cc(C=O)c(C)n1-c1ccc(NC2CCCC2)c([N+](=O)[O-])c1	i	0.24
CC(=O)Nc1ccc(S(=O)(=O)Nc2ccccc2C(=O)N2CCOCC2)cc1	i	-0.72
COc1ccc2oc(C(=O)CCC(=O)O)c(N)c2c1	i	0.39
O=C(N/N=C\C1CC=CCC1)c1ccc(Br)o1 (stereo unspecified)	i	0.94
Cn1nc(CC(=O)Nc2ncc(Br)s2)c2ccccc2c1=O	i	-0.37
O=C(O)CSc1nccn1-c1cccc(Cl)c1	i	-1.43
CN1CCN(/N=C2/C(=O)Nc3ccc([N+](=O)[O-])cc32)CC1	i	-0.91
CSc1ccccc1C(=O)Nc1ccc2c(c1)OCCO2	i	-0.24
O=C(CN1C(=O)C(=O)c2ccccc21)NC1CCCCC1	i	-1.46
CC1C(=O)Nc2ccccc2N1C(=O)c1ccc(O)cc1 (stereo unspecified)	i	0.29
Cc1ccccc1NC(=O)CNc1ccccc1N1CCCCC1	-5.56*	-0.39*
Cc1ccc(NC(=O)CS(=O)CC(=O)Nc2ccccc2-c2ccc(C)o2)cc1 (stereo unspecified)	i	-0.12
COc1ccc(S(=O)(=O)Nc2cccnc2)c(Cl)c1Cl	i	2.34
COc1ccc(Cn2cccc(NC(=O)Nc3ccc(C#N)cc3)c2=O)cc1	i	-1.24
CN(/N=C/c1ccc(Cl)cc1)c1ncc(Cl)cc1C(F)(F)F	i	0.02
O=C(Nc1cccc(-c2ccc(N3CCOCC3)nn2)c1)c1ccccc1Cl	i	0.48

Screening results (PubChem)
